Ba CapD inh: inhibitors of Bacillus anthracis CapD enzyme; purified CapD enzyme, fluorescence intensity read-out; hits give low values; some hits fall short of the stated cut; actives 0.23% (n = 140,000); z-score (concentration not given with the values);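 active means z-score under -4 in either of two replicates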;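 further: stock transfer was 100 nL into about 40 µL; score is relative to mean and spread of the plate; one replicate is shown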
AID504770: growth inhibitors of E. coli YBA685 in a screen for V. cholerae RctB (chromosome II replication) inhibitors. E. coli YBA685 rctB-dependent plasmid, OD600 growth, 3 h; hits give low values. z-score (test concentration not listed). actives 0.27% (n = 130,000). AID 504770;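 active means z-score under -2 on both plates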;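 further: wells of about 30 µL received 100 nL stock; score is relative to mean and SD of the test wells; the first replicate is given; strong numbers were not always called active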
The depositor's hits bear a star; i = inactive; nt = not tested or not shown; & = joins results of further samples.

The line under a structure holds: AID504770 | Ba CapD inh
COc1ccc(N2CCN(CCCNC(=S)Nc3c(C)cccc3C)CC2)cc1
  -0.4 | -2.17
Cc1ccc(N2C(=O)C(CC(=O)Nc3ccccc3)N(Cc3ccc4c(c3)OCO4)C2=O)cc1 (stereo not drawn)
  -0.85 | 0.51
O=C(O)c1cc2ccccc2[nH]1
  0.45 | nt
O=C1CC(Nc2ccccc2)C(=O)N1c1cccc(C(F)(F)F)c1 (stereo not drawn)
  -0.1 | nt
CCOC(=O)c1ccc(NC(=S)Nc2cccc(N)n2)cc1
  0.05 | -1.38
C=C(C)Cn1c(SCCC(C)C)nc2c1c(=O)[nH]c(=O)n2C
  nt | -0.015
Cc1ccc(-c2nc(C(=O)Nc3ccccn3)c3n2CCCCC3)cc1
  1.3 | -0.55
O=c1oc(-c2ccccc2)nc2sc3c(c12)CCC3
  nt | 0.275
CSc1nnc2sc3ccccc3n12
  2.35 | -0.335
CC(=O)N(C(C)=O)S(=O)(=O)c1ccc(N=NN(C)C)cc1
  -1.55 | -5.13*
CC1(C)CC(=O)C=C(N2CCCCC2)C1
  nt | -0.62
O=C(NCCc1ccc(Cl)cc1)c1cc(=O)[nH]c(=O)[nH]1
  -0.4 | nt
N#Cc1cc(C#N)c(SCC(=O)N2CCNC2=O)nc1N
  -0.35 | nt
C[n+]1noc(NC(=O)C(F)(F)F)c1-c1ccccc1
  -0.35 | 0.08
CCOC(=O)c1cc(C)n(Cc2cccc(C(F)(F)F)c2)n1
  -0.9 | 0.05
CCOC(=O)CSc1ccc([N+](=O)[O-])cc1Cl
  nt | -0.475
C=CCNc1nc(-c2ccccc2)c(C(=O)Nc2cccnc2)s1
  0.05 | 0.43
Cc1cc(S(=O)(=O)n2nnc3ccccc32)c(Cl)cc1Cl
  nt | -0.745
CC1CC(OC(=O)CN2CCCCC2)CC(C)(C)C1 (stereo not drawn)
  -0.5 | -0.895
Cc1cc(C)nc(S/C=C/C(=O)c2ccc(Cl)cc2)n1
  -0.65 | -0.64
COC(CNC(=O)C1CCN(Cc2nc(-c3ccc(Cl)cc3)oc2C)CC1)OC
  -0.55 | 0.805
NC(=O)c1ccccc1OCC(=O)N1CCOCC1
  -0.55 | -0.255
COc1ccccc1-c1cc(C(=O)N2CCCc3ccccc32)no1
  -0.2 | 0.32
FC(F)(F)c1nnc(-c2ccccc2)o1
  -1.4 | -0.04
CC(C)c1ccc(N2CC(C)(C)C2=O)cc1
  0.4 | -0.585
O=C(O)CC(Sc1ncn[nH]1)c1ccc(Cl)cc1 (stereo not drawn)
  1.55 | -0.415
Clc1ccccc1C1Nc2ccccc2S1 (stereo not drawn)
  nt | 1.46
N=C1S/C(=C\c2cc3c(cc2[N+](=O)[O-])OCO3)C(=O)N1c1ccc(F)cc1
  nt | 0.175
CCOc1ccccc1Nc1nc2cc(Cl)ccc2o1
  0.4 | -0.615
CCc1ccc(-c2nc3c(C#N)c[nH]n3c2NCCC(C)C)cc1
  -0.05 | -1.02

Carrying on:
The line under a structure holds: AID504770 | Ba CapD inh
NC1CCN(C(=O)C2CC2)CC1
  0.95 | nt
O=S(=O)(c1ccc2ccccc2c1)N1CCN(Cn2[nH]c(-c3cccs3)nc2=S)CC1
  -0.9 | nt
O=C(Nc1ccc(Cl)cc1C(F)(F)F)c1cc(S(=O)(=O)N2CCC3(CC2)OCCO3)ccc1F
  nt | -0.22
O=C(COn1nnc2ccc(Cl)cc21)Nc1ccccc1
  -1 | nt
Cc1ccccc1C(=O)N(CC#N)CC#N
  -0.6 | 0.41
COc1ccc(C(=O)O)cc1S(=O)(=O)NC(C)(C)C
  -0.6 | nt
CCOc1cc(/C=c2\sc3n(c2=O)C(c2ccc(OC)cc2)C(C(=O)OC)=C(C)N=3)ccc1OC(C)=O (stereo not drawn)
  nt | 0.07
c1cncc(-c2nc(NCc3ccncc3)c3ccccc3n2)c1
  0.45 | nt
c1ccc(CSc2nn3cc(-c4ccccc4)nc3s2)cc1
  0.2 | nt
O=C1/C(=C/c2cccs2)COC/C1=C\c1cccs1
  nt | -0.095
CCC(c1nnc(SCC(C)C#N)n1Cc1ccccc1)N(C)C (stereo not drawn)
  0 | nt
O=C1CCC(=O)N1CNc1ccc(C(F)(F)F)cc1
  nt | -0.5
O=C(CC(NC(c1ccccc1)c1ccccc1)C(=O)O)c1ccc(Cl)cc1 (stereo not drawn)
  -1.15 | -0.7
N#Cc1c(NC(=O)CSc2ccccn2)oc(-c2ccccc2)c1-c1ccccc1
  -0.65 | nt
CCn1c2ccccc2c2nnc(NCc3ccccc3)nc21
  -0.6 | -0.135
COc1ccc(-c2nnc(SCC(=O)NC(Cc3ccccc3)C(=O)O)o2)cc1 (stereo not drawn)
  1.25 | nt
CCCCN(CC)C(=O)c1cc2c(C)nn(-c3ccc(Cl)cc3)c2s1
  -0.45 | nt
CC(C)n1c(SCC(N)=O)nc2c(oc3ccccc32)c1=O
  1.5 | 52.8
C=C1C(C(=O)NCc2ccco2)C1C(=O)NCc1ccco1 (stereo not drawn)
  -0.1 | -10.2*
O=C(NNC(=O)c1ccc2n[nH]nc2c1)c1cccc(F)c1
  nt | -0.575
Brc1cccc(-c2nnc3sc(CNCc4ccco4)cn23)c1
  0.15 | 0.085
COc1cc(C(=O)N/N=C/c2ccc(OC(=O)N3CCOCC3)cc2)cc(OC)c1OC
  -0.55 | -0.1
CS(=O)(=O)N1Cc2ccccc2CC1C(=O)OCC(=O)N1CC(=O)Nc2ccccc21 (stereo not drawn)
  -3.1 | nt
COc1ccc(Cl)cc1NC(=O)Cn1nc(C(F)(F)F)cc1C
  -0.4 | nt
O/N=C/c1cn(CC(O)Cn2cnc3ccccc32)c2ccccc12 (stereo not drawn)
  0.35 | nt
Nc1sc2ccccc2[n+]1C(=O)OCc1ccccc1
  0.05 | 0.28
COC(=O)C1=CN(c2cccc(C(F)(F)F)c2)C=C(C(=O)OC)C1c1ccsc1
  0.95 | -0.14
CCCCC(NC(C)=O)C(=O)N1CCC(Cc2ccccc2)CC1 (stereo not drawn)
  nt | 0.035
O=C1c2ccccc2C(=O)C1C(c1ccco1)C1C(=O)c2ccccc2C1=O
  0.6 | -0.3
CC1CCCCC1NC(=O)COc1ccc2c(c1)C(=O)CC(C)(C)O2 (stereo not drawn)
  -1.75 | 44.7

Sorted by number of heavy atoms (descending): some entries from above.
The line under a structure holds: AID504770 | Ba CapD inh
O=C(CC(NC(c1ccccc1)c1ccccc1)C(=O)O)c1ccc(Cl)cc1 (stereo not drawn)
  -1.15 | -0.7
O=C1CCC(=O)N1CNc1ccc(C(F)(F)F)cc1
  nt | -0.5
NC1CCN(C(=O)C2CC2)CC1
  0.95 | nt

(continued)
The line under a structure holds: AID504770 | Ba CapD inh
O=C(c1ccccc1)N1CCN(c2ccc(NCC3CCCO3)nn2)CC1 (stereo not drawn)
  1.6 | nt
CCNC(=O)CCCc1nc(-c2ccccc2)no1
  0.05 | -1.35
Cc1cccn2c(/C=N/OC(=O)c3cccs3)c(-c3ccc(Cl)cc3)nc12
  nt | 4.21
O=C(NC(O)C(=O)c1cccs1)c1cccnc1 (stereo not drawn)
  0.05 | -0.395
O=C(CN1C(=O)C2CC=CCC2C1=O)OCC(=O)c1c[nH]c2ccccc12 (stereo not drawn)
  -0.1 | nt
COC(=O)c1nnn(-c2nonc2N)c1CN1CCN(C)CC1
  nt | -0.305
COC(=O)C1C(=O)C=C(N2CCOCC2)CC1(C)C (stereo not drawn)
  -0.35 | 0.05
COc1cc(C(=O)N2c3ccccc3N3C(c4c(C)cc(C)cc4C)=NON23)cc(OC)c1OC
  nt | 0.985
Cc1ccccc1OCc1nc2c3c(-c4ccccc4)c(-c4ccccc4)oc3ncn2n1
  nt | -0.23
Cc1ccc2c(CSc3nncs3)cc(=O)oc2c1
  0.7 | nt
C=CCn1c(CCNC(=O)c2ccc(OC)cc2)n[nH]c1=S
  -0.7 | nt
O=C(O)CCc1nnc2ccc(NCc3ccco3)nn12
  -0.4 | -0.205
Cc1ccc(C(=O)NNC(=O)c2ccc3nsnc3c2)c(Cl)n1
  nt | 0.075
O=C(Nc1nc(-c2ccc(F)cc2)cs1)c1ccc(N2C(=O)CCC2=O)cc1
  -0.15 | i
O=C(O)c1nn(CC(=O)N2CCc3ccccc32)c(=O)c2ccccc12
  0.55 | nt
CCCCc1ncc(CNCCc2c(C)[nH]c3ccc(OC)cc23)[nH]1
  -0.7 | 0.07
COC(=O)[C@@H](NS(=O)(=O)c1ccc(Cl)c(Cl)c1)C(C)C
  -0.95 | nt
O=C(Cn1nnc(-c2cccc(F)c2)n1)N1CCCC1c1ccc2c(c1)OCCO2 (stereo not drawn)
  0.45 | nt
CC1CCCN(CC(=O)Nc2ccc(C(=O)O)cc2)C1 (stereo not drawn)
  -0.4 | nt
O=C1CCN(c2cc(C(F)(F)F)nc3cc(Cl)cc(Cl)c23)CC1
  -1.75 | -0.84
CCOC(=O)C(C(=O)Nc1ccc(Br)cc1)C1CCCCC1 (stereo not drawn)
  0.95 | 40.3
Cc1ccc(S(=O)(=O)CCC(=O)Nc2ccc(C)c(C)c2)cc1
  -0.95 | 0.195
O=C1CC(=O)N2C=CC=CC2=N1
  nt | -0.035
O=C(NCc1ccc(-c2csnn2)cc1)c1ccccc1C(F)(F)F
  0.45 | 0.75
O=C(COC(=O)/C=C/c1ccco1)Nc1cccc(C(F)(F)F)c1
  -0.45 | nt
Cn1c(=O)c2ccccc2n(Cc2ccc(Cl)cc2)c1=O
  -0.1 | nt
OC(c1nc2ccccc2o1)(c1c[nH]c2ccccc12)C(F)(F)F (stereo not drawn)
  -0.7 | nt
O=C(CNCC(c1ccc(F)cc1)N1CCOCC1)NCc1ccccc1Cl (stereo not drawn)
  -0.5 | nt
CCOC(=O)c1oc2c(c1C)-c1nn(CC)cc1CC2
  -1.2 | 14
CC1(C)CC(=O)C(CC(=O)Nc2cc(C(F)(F)F)ccc2Cl)C(=O)C1
  -0.15 | 0.205

(continued)
The line under a structure holds: AID504770 | Ba CapD inh
S=c1nc(-c2ccccc2)[nH][nH]1
  -0.25 | -0.705&0.76
N#Cc1ccccc1CSc1nsc(SCc2ccccc2C#N)c1C#N
  0 | 0.175
O=S(=O)(c1ccc(-n2cnnn2)cc1)N1CCNCC1
  1.65 | 0.315
CC1CC(NS(=O)(=O)c2cc3c4c(c2)CCN4C(=O)CC3)CC(C)(C)C1 (stereo not drawn)
  1.3 | nt
O=c1cc(-c2ccc3c(c2)OCCO3)oc2ccc(F)cc12
  -0.3 | 4.56
CC(C(=O)N(C)Cc1ccccc1)N1CCN(C/C=C/c2ccccc2)CC1 (stereo not drawn)
  -0.25 | nt
CCC(NC(=O)Nc1cc(C)ccc1OC)c1ccccc1 (stereo not drawn)
  2.15 | -0.03
C=CCC(NCc1ccco1)c1ccccc1 (stereo not drawn)
  -0.45 | nt
COc1ccc(CNC(=O)c2oc3ccc4nc(N(C)C)sc4c3c2C)cc1
  0 | -0.2
CC(C)(C)OC(=O)N1CCC(n2nccc2N)CC1
  -0.15 | nt
Ic1ccc(Nc2nc3nonc3nc2N/N=C\c2ccco2)cc1
  -0.15 | nt
O=C(c1ccc(F)cc1)c1ccc(-c2nc3cc4ccccc4cc3nc2-c2ccccc2)cc1
  nt | -0.285
COCCOC(=O)c1c(C)oc2ccc(OCc3ccc(Br)cc3)cc12
  nt | 0.52
CC(C)c1ccc(C(=O)NCCCn2ccnc2)cc1
  -1.15 | nt
CCCCCCCCCCOCCOCCOC(=O)NNC(=O)c1noc(C)c1-c1csc(C)n1
  nt | 0.045
COc1cccc(CN(C(=S)NCc2ccccc2)c2ccc(F)c(Cl)c2)c1O
  0.35 | -0.43
O=C(NCc1ccc2c(c1)CCO2)C1CCC1
  0.45 | 1.44
CCOC(=O)C1CCN(C(c2ccccn2)c2c(C)[nH]c3ccccc23)CC1 (stereo not drawn)
  2.45 | -0.84
CC(C)(C)C(=O)NC(=S)Nc1ccccc1
  0.05 | 0.195
Nc1ccnc(C(F)(F)F)c1C(=O)c1ccccc1
  -0.4 | -0.2
CC(C)N(CCNc1nnnn1-c1ccccc1)C(C)C
  -0.15 | nt
CCCC(C(=O)NC1CCCC1)N(Cc1ccccc1)C(=O)Cn1nnc(-c2ccc(C)o2)n1 (stereo not drawn)
  -0.7 | nt
O=C1CN=C(c2ccccc2)c2oc3ccc(Br)cc3c2N1
  nt | -0.175
O=C(O)c1ccc(S(=O)(=O)c2ccc3c(c2)C(=O)N(c2ccc(O)cc2)C3=O)cc1
  0.05 | 0.61
CC(Sc1nc(-c2ccccc2)cs1)C(=O)NC(N)=O (stereo not drawn)
  1.3 | nt
CCN(CC)C(=O)N(CC)C1CCCCC1
  -0.5 | 0.02
N=C1S/C(=C\c2ccc(-c3ccc(F)c(Cl)c3)o2)C(=O)N1c1nonc1N
  nt | -0.715
N#Cc1c2c(c(-c3ccccc3)[nH]c1=S)CCCC2
  0.35 | nt
CCOC(=O)c1nc2c3ccccc3ncn2n1
  1.65 | nt
CCOC(=O)Nc1ccc2c(c1)N(C(=O)CCNC)c1ccccc1S2
  -0.5 | 0.23

Random excerpt: 4 records from the list
The line under a structure holds: AID504770 | Ba CapD inh
CCN(CC)C(=O)N(CC)C1CCCCC1
  -0.5 | 0.02
COc1ccc(CNC(=O)c2oc3ccc4nc(N(C)C)sc4c3c2C)cc1
  0 | -0.2
CCOC(=O)Nc1ccc2c(c1)N(C(=O)CCNC)c1ccccc1S2
  -0.5 | 0.23
S=c1nc(-c2ccccc2)[nH][nH]1
  -0.25 | -0.705&0.76

Next records.
The line under a structure holds: AID504770 | Ba CapD inh
COc1ccc(-n2c(=O)c3c(n4cnnc24)-c2ccccc2CC32CCCCC2)cc1
  nt | -0.355
Cc1c(C(=O)N(C)C)sc2c1c(=O)n(-c1ccccc1)c(=O)n2CC(=O)N(C)c1ccccc1
  -0.1 | 0.31
O=C1/C(=C/c2cccnc2)SC(=S)N1N1CCOCC1
  -0.25 | nt
O=C(CSc1nc2ccccc2c(=O)n1-c1ccccc1)N1CCOCC1
  -0.25 | nt
Cc1cn(CC(C)C)c(=O)[nH]c1=O
  1 | 0.66
